Source: PubChem (Broad Institute)
Tg IFNy HTS: T. gondii growth inhibition under IFN-gamma | activity change, negative = inhibition, %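 (about 20 µM by stock and volumes)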 | 69,000 tested, 3.8% active | Toxoplasma gondii growth in IFN-gamma-treated host cells; active compounds read low; reference of the scale not given here | AID 1259416;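 active = below -70%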;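 note: host cells are HeLa cells infected with Toxoplasma gondii; parasite growth read as luciferase light; one replicate is shown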
* marks the source's active call; other numbers are inactive results; i = inactive; & = joins results of further samples. Some of the compounds tested; rates above refer to the full screens.

SMILES | Tg IFNy HTS
CCn1c(SCc2nc(-c3ccc(Cl)cc3)oc2C)nc2c(=O)[nH]cnc21 | 9
CC(C)N1CCO[C@H]2CN(C(=O)c3cccn3C)C[C@@H]21 | -4
O=C(NCCc1c[nH]c2ccccc12)c1ccccc1C1CCNC1 (stereo unspecified) | 0
O=C(C[C@@H]1CC[C@@H](NC(=O)CC2CC2)[C@@H](CO)O1)NCC(F)(F)F | 5
O=C(O)CCCN1CCS(=O)CC1 | -2
CC(C)c1ccc(S(=O)(=O)N2CCC3(CC2)NCCN=C3NC2CCCCCC2)cc1 | -47
Cc1cc(C)c2cc(C#N)c(NCCCn3ccnc3)nc2c1 | -101*
COCCn1c(SCC(=O)N2CCCc3ccccc32)nnc1-c1ccco1 | 26
CN1C(=O)N(Cc2ccccc2)C(=O)C12CCN(Cc1nc3ccccc3s1)CC2 | 2
O=C(C1CCC1)N1C[C@@H]2[C@H](c3ccccc31)[C@@H](CO)N2C(=O)Nc1cccc(F)c1 | -2
CS(=O)(=O)N1[C@@H]2c3cccc(=O)n3C[C@H]1[C@H](CO)[C@H]2C(=O)NCc1ccc(F)cc1 | -2
COc1ccccc1NC(=O)Cn1c(=O)cc(-c2nc(C3CC3)no2)c2ccccc21 | -8
CCCC(=O)N1CCC(Cc2ccc(-c3cccs3)cc2)(C(=O)NCC)C1 (stereo unspecified) | 2
CC[C@H](C)[C@H](NC(=O)[C@H](Cc1ccc(O)cc1)NC(=O)[C@@H](NC(=O)[C@H](CCCN=C(N)N)NC(=O)[C@@H](N)CC(=O)O)C(C)C)C(=O)N[C@@H](Cc1cnc[nH]1)C(=O)N1CCC[C@H]1C(=O)O | 14
CCSc1nc(CC(=O)N(C)CCc2noc(C)n2)cs1 | 101
CC(C)Cc1cc(C(=O)NCc2cccnc2-n2ccnc2)on1 | -1
C/C=C/c1ccc(C2[C@@H]3CN(S(=O)(=O)c4cccc(OC)c4)C[C@H]2N3)cc1 (stereo partly specified) | -52
C=CCOC[C@H]1CCC2C(CCN2C(=O)NCc2cccc(F)c2)O1 (stereo partly specified) | 2
Cc1ccc(C2(O)CCN(C(=O)c3noc(C)c3CO)CC2)nc1 | -3
CCC(=O)Nc1cc(Cl)ccc1C(=O)N(C)Cc1noc(CC)n1 | 87
Nc1nc(CSc2nnc(-c3ccncc3)o2)nc(Nc2ccccc2)n1 | 5
COc1ccc(Cc2nncn2-c2ccc(F)cc2F)cc1 | -4
O=C(Nc1ccccc1Cl)N1CCC2(CC1)Nc1cc(F)ccc1-n1cccc12 | 249
COCC(=O)N1CC[C@H](Oc2cccnc2)[C@@H](Cc2ccccc2)C1 | -16
CN(C)C(=O)C[C@H]1CC[C@@H]2[C@H](COc3ccc(NC(=O)C4CCCCC4)cc3C(=O)N2C)O1 | -7

(further entries)
SMILES | Tg IFNy HTS
OCc1cccc(-n2ccnc2-c2ccnn2-c2ccccc2)c1 | -42
COc1ccccc1CNC(=O)CN1C(=O)CCc2cc(S(=O)(=O)N3CCCCC3)ccc21 | 9
OC(CNC1CCC2(CCNCC2)CC1)c1ccccc1Cl (stereo unspecified) | 5
Cc1cc(N2CCC3(CCCO3)CC2)c2ccccc2n1 | -13
Cc1cnccc1NCCNC(=O)c1cccc(CC2CCNCC2)c1 | 3
Cc1occc1C(=O)NN1CC(=O)N(c2ccccc2-c2ccccc2)C1=O | 23
COCC1CN(Cc2ccoc2)Cc2c1cnn2CC1CC1 (stereo unspecified) | -8
COc1ccc(CNC(=O)C[C@@H]2C=C[C@@H](NC(=O)c3cccc(F)c3)[C@@H](CO)O2)cc1 | 7
Cc1ccc(CSC2=Nc3ccccc3C3=NC(CC(=O)NCc4ccc(F)cc4)C(=O)N23)cc1 (stereo unspecified) | -45
c1cncc(COC2CCCN(Cc3ccncc3)C2)c1 (stereo unspecified) | 1
O=C(Cn1ncc2cccn2c1=O)c1ccc2c(c1)OCCO2 | 214
N#C[C@H]1[C@@H](c2ccccc2-c2ccccc2F)[C@H](CO)N1C(=O)c1cccc(F)c1 | 0
COc1cc(NC(=O)Cn2c(=O)cc(C(=O)N3CCc4ccccc4C3)c3ccccc32)cc(OC)c1 | -9
O=c1cc(-c2ccccc2)sc2ccc(Cl)cc12 | 246
Cc1ccc(C(=O)N2CCc3c([nH]c4ccccc34)C2c2ccc(C)cc2)cc1 (stereo unspecified) | i
CN(Cc1cc2n(n1)CCCNC2)Cc1nc2ccccc2s1 | -1
CC(NC(=O)c1cccc2ccnn12)c1cn2ccsc2n1 (stereo unspecified) | 1
CC1CCN(S(=O)(=O)c2ccc3c(c2)CCC(=O)N3CC(=O)Nc2ccc(F)c(F)c2)CC1 | -13
CSc1ccc(-c2noc(-c3c(O)c4ccc(F)cc4n(C)c3=O)n2)cc1 | 140
C[C@H]1[C@H](C)CC[C@]2(C(=O)O)CC[C@]3(C)C(=CC[C@@H]4[C@@]5(C)CC[C@H](O)C(C)(C)[C@@H]5CC[C@]43C)[C@H]12 | -79*
Cc1cccc(CN2CCO[C@H]3CN(S(=O)(=O)c4ccc(F)cc4)C[C@@H]32)n1 | -19
Cc1nc(NC(=O)c2ccco2)sc1C(=O)O | 14
CC(C)NC(=O)N1[C@H](CO)[C@@H](c2ccccc2)C12CN(C(=O)c1ccccn1)C2 | -22
O=C(c1cn2cc(Cl)ccc2n1)N1C[C@H]2C[C@H](O)[C@@H](O)C[C@H]2C1 | -3
CCS(=O)(=O)N1CC2(CN(C(=O)NC(C)C)[C@H](CO)c3c2c2ccc(OC)cc2n3C)C1 | 35

(list continues)
SMILES | Tg IFNy HTS
CN(C)CCN1CCOCC2(CCC(CN(C)Cc3ccco3)O2)C1 (stereo unspecified) | -16
Cc1nc(CCNC(=O)c2ccc(=O)n(C)c2)sc1C | 4
C/C=C/c1ccc([C@@H]2[C@@H](CN(C)C(=O)CC3CC3)N(C(=O)C3CC3)[C@H]2CO)cc1 | 17
Cc1cccc(S(=O)(=O)NCCc2csc(-c3ccc(F)cc3)n2)c1 | 3
O=C1NCC(=O)N2CCN(C(=O)c3ccc(CN4CCCCC4)cc3)CC12 (stereo unspecified) | -9
COc1ccc(CN(C)C[C@@H]2OCCCC[C@H](C)Oc3ccc(NC(=O)C4CCCCC4)cc3C(=O)N([C@@H](C)CO)C[C@@H]2C)cc1 | 93
COc1ccc2c(c1)NC1(CCN(C(=O)COc3cccc(C)c3)CC1)c1cccn1-2 | -129*
CCn1c(CNS(=O)(=O)c2ccc3c(c2)CC(C)N3C(C)=O)nc2ccccc21 (stereo unspecified) | 74
CCOCc1ncn2c1CN(C(=O)c1ccoc1C)CC2 | -43
Cn1nc(C(=O)NCCc2nc(-c3ccccc3)ncc2C(N)=O)cc1-c1ccc(F)cc1 | 19
CN(Cc1ccccc1C(=O)O)C1CC(C)(C)NC(C)(C)C1 | 17
CC(=O)Nc1ccc(S(=O)(=O)NCc2ccc3[nH]c(C)c(C)c3c2)cc1 | -15
COc1ccc(CN2CCc3c(nc4cc(-c5ccoc5C)[nH]n4c3=O)C2)cc1CO | 17
COCCN1C(=O)CCc2cc(NS(=O)(=O)c3ccc(Br)cc3)ccc21 | 7
O=c1c(Nc2ccccc2)c(Nc2ccccc2)c1=O | -82*
Cc1oc(C(=O)O)cc1CSC(C)C(=O)O (stereo unspecified) | 0
CN(C)C1CCN(C(=O)c2cccc(F)c2)C(C(=O)O)C1 (stereo unspecified) | 39
Cn1c(=O)c2c(-c3ccc4c(c3)OCO4)c3c(nc2n(C)c1=O)-c1ccccc1C3O (stereo unspecified) | 8
N#C[C@@H]1[C@@H](c2ccc(C#Cc3cccc(F)c3)cc2)[C@H](CO)N1C(=O)C1CCOCC1 | -30
C[C@@H]1CN([C@@H](C)CO)C(=O)CCCn2nncc2CO[C@H]1CN(C)Cc1ccc2cccnc2c1 | 113
O=C(O)C1CC2(CCNCC2)CN1Cc1nc2ccccc2[nH]1 (stereo unspecified) | 19
CC(N)CCCC(C)(C)O (stereo unspecified) | 10
Cc1ccc(C(=O)Nc2c(C(=O)NCc3ccccn3)[nH]c3ccccc23)cc1 | -2
CC(C(=O)NC(C)(C)C)N(Cc1ccco1)C(=O)C1COc2ccccc2O1 (stereo unspecified) | 43
Cc1[nH]cnc1-c1nccn1Cc1scnc1-c1ccccc1 | 6

Four entries from above, field by field.
> O=c1c(Nc2ccccc2)c(Nc2ccccc2)c1=O
- Tg IFNy HTS: -82*
> Cc1oc(C(=O)O)cc1CSC(C)C(=O)O (stereo unspecified)
- Tg IFNy HTS: 0
> CN(C)C1CCN(C(=O)c2cccc(F)c2)C(C(=O)O)C1 (stereo unspecified)
- Tg IFNy HTS: 39
> Cn1c(=O)c2c(-c3ccc4c(c3)OCO4)c3c(nc2n(C)c1=O)-c1ccccc1C3O (stereo unspecified)
- Tg IFNy HTS: 8

Looked up one by one from the entries so far, five records:
SMILES | Tg IFNy HTS
Cc1cccc(S(=O)(=O)NCCc2csc(-c3ccc(F)cc3)n2)c1 | 3
Cc1nc(CCNC(=O)c2ccc(=O)n(C)c2)sc1C | 4
O=C(O)C1CC2(CCNCC2)CN1Cc1nc2ccccc2[nH]1 (stereo unspecified) | 19
CC(N)CCCC(C)(C)O (stereo unspecified) | 10
COCCN1C(=O)CCc2cc(NS(=O)(=O)c3ccc(Br)cc3)ccc21 | 7

(cont.)
SMILES | Tg IFNy HTS
Cc1ccc(O)c(CCc2ccccc2)n1 | 2&9
O=C(COc1ccc(Cl)cc1)NCCc1csc(-c2ccc(F)cc2)n1 | -8
OCCNc1cc(N2CCN(Cc3cccc4nsnc34)CC2)ncn1 | 18
CC1CCCCN1S(=O)(=O)c1ccc2c(c1)CCC(=O)N2CC(=O)N1CCCC1 (stereo unspecified) | 28
COc1ccc(-c2nc(NCCCN3CCCC(C)C3)c3ccccc3n2)cc1 (stereo unspecified) | -47
Cc1cccc(NC(=O)Cn2ncc3c(N4CCN(c5ccccc5)CC4)ncnc32)c1C | 2
O=c1c(CN(Cc2ccccn2)CC2CCCO2)coc2ccccc12 (stereo unspecified) | 8
Cc1ccccc1-c1ncc(CN2CCn3nc(C(=O)NC4CC4)cc3C2)cn1 | 4
O=C(C[C@H]1CC[C@@H](NC(=O)CN2CCOCC2)[C@H](CO)O1)NC1CCC1 | -20
CCOc1cc(C(=O)NCCc2sc(-c3ccc(Cl)cc3)nc2C)cc(OCC)c1OCC | 18
COc1cccc(S(=O)(=O)N(C)C[C@@H]2OCc3ccccc3-c3c(n(C)c4ccccc34)C(=O)N([C@@H](C)CO)C[C@@H]2C)c1 | -43
COc1ccc2c(CC(=O)O)coc2c1 | 76
Cc1cc(C)n(CCCNC(=O)c2cn(CC3CCCNC3)nn2)n1 (stereo unspecified) | 0
COc1ccc2c3c([nH]c2c1)[C@H](CO)N(C(=O)C1CCOCC1)CC31CCN(S(C)(=O)=O)CC1 | 225
Cn1cc(N2C(=O)CC[C@@H]3[C@@H]2CCN3Cc2ccoc2)cn1 | -37
CN(C)C(=O)Cc1ccc(S(=O)(=O)N2CCCN(c3ccccn3)CC2)cc1 | -5
Cn1c(=O)c(-c2nc(-c3cccc(F)c3)no2)c(O)c2cc(F)ccc21 | -31
CC(C)N1C2CCN(Cc3ccsc3)CC2C[C@H]1Cn1cncn1 (stereo partly specified) | -2
CO[C@@H]1CN(C)C(=O)c2ccc(NC(=O)CN(C)C)cc2OC[C@@H](C)N(C(=O)C2CCCCC2)C[C@H]1C | 19
N#C[C@@H]1[C@H](c2ccccc2-c2ccccc2)[C@H](CO)N1C(=O)Cc1ccncc1 | -50
Cc1cccc(C(C(=O)NCc2nnc3n2CCCCC3)N(C)C)c1 (stereo unspecified) | 5
CCC(=O)Nc1ccc(C)cc1-c1c(Cl)cccc1OC | 4
Cc1cc(C)c(S(=O)(=O)NCCc2csc(-c3ccc(Cl)cc3)n2)cc1C | 23
Cc1oc(C(C)C)cc1C(=O)N1CCC2(CN(C)C(=O)O2)C1 (stereo unspecified) | -2
CCOC(=O)[C@@]12CC=CCN(C(=O)c3ccc(Cn4cccn4)o3)[C@@H]1CCC2 | -6

(next part)
SMILES | Tg IFNy HTS
O=C(c1ncoc1C1CC1)N1CCC(c2n[nH]c(=O)n2-c2ccccc2)CC1 | 49
Cc1ccc(-c2nc(-c3noc4ccc(C(=O)N5CCCN(C)CC5)cc34)co2)cc1 | -35
Cc1nn(CC(=O)N2CCN(c3ccccc3)CC2)c(=O)c2nc(-c3ccccc3)sc12 | -8
COc1ccccc1CNC(=O)C[C@@H]1CC[C@H]2[C@@H](COc3ccc(NC(C)=O)cc3C(=O)N2C)O1 | 22
Cc1noc(C)c1NC(=O)N(C)C[C@H]1OCc2ccccc2-c2c(n(C)c3ccccc23)C(=O)N([C@@H](C)CO)C[C@H]1C | -41
Nc1cnn(CC(=O)N2CCCCC2)c1 | -40
NC(=O)N1CCO[C@]2(CCC[C@H]2COc2ccccn2)C1 | i
CC(C)c1nc(CN(C)Cc2cncn2C)no1 | -4
CC(C)Cc1cc(C(=O)N2CCN(C)C(c3ccccc3)C2)nc(=O)[nH]1 (stereo unspecified) | 3
O=C(CN1CCOc2ccccc2C1)N1CCC(Oc2ncccn2)CC1 | -3
COC(=O)c1cccc(-c2cccc(C(F)(F)F)n2)c1 | -3
O=C(c1cncc(NS(=O)(=O)c2ccc(F)cc2)c1)N1CCN(Cc2ccccc2)CC1 | 19
